Screening data: PubChem BioAssay, National Center for Advancing Translational Sciences (NCATS)
Cruzain inh noDet: blocks cruzain activity in detergent-free assay | P25779 | purified cruzain, Z-FR-AMC fluorescence, no detergent | Potency, µM, inactives show max response, negative = inhibition, actives largely listed as inhibitors | 2.3% of 200,000 active | AID 1476;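 note: plate controls were enzyme without inhibitor for no effect and buffer without enzyme for full effect; nearly all actives have a fitted effect of over 40% in size; top concentration of the series not given in the record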
Target sequence (P25779 123-467 limits assumed): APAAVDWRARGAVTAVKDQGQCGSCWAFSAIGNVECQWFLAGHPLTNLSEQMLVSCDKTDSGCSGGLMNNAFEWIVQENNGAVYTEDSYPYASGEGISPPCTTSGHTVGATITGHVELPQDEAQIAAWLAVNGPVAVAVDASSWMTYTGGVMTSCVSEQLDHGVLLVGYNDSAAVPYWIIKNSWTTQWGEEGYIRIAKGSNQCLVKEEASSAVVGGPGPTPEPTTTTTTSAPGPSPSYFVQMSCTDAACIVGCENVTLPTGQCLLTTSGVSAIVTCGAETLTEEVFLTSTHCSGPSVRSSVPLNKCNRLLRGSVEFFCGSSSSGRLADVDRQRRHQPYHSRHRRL
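Detergent-free condition (0.00005% Triton X-100) in acetate buffer pH 5.5 with DTT. 1.5 nM enzyme and compound were pre-mixed 15 min, then 2 uM Z-FR-AMC substrate added; reaction progress from fluorescence change between first and third reads (60 s).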
LASV entry inh: Lassa virus entry inhibition. 1.2% of 300,000 active. AID 540256. Potency, µM (top dose mostly 37.9 µM), inactives show at the top dose activity change, negative = inhibition, most hits filed as inhibitors. Lassa virus pseudotype entry inhibition, cell reporter; control for the full effect not named in the record; active means well fitted inhibition curve with a large enough effect; inconclusive means small, poorly fitted or top-dose-only effect, or effect the other way; inactive means flat fitted curve, though single readings scatter; tested in HEK293 cells; note: % is set by controls: 0 for no effect and ±100 for the full control effect; nearly all actives have a fitted effect of over 50% in size; luciferase read-out
Cruzain Triton: cruzain (T. cruzi) inhibition with detergent | 0.43% of 200,000 active | Potency, µM, inactives show max response, negative = inhibition, actives largely listed as inhibitors | AID 1478 | P25779 | purified cruzain, Z-FR-AMC fluorescence, 0.01% Triton;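 note: plate controls were neutral wells for no effect and buffer without enzyme for full effect; nearly all actives have a fitted effect of over 40% in size; top concentration of the series not given in the record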
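Z-FR-AMC hydrolysis (2 uM substrate) by cruzain (1.5 nM) monitored kinetically at ex 360/em 450 nm after 15 min room-temperature compound exposure; 0.01% Triton X-100, pH 5.5, 5 mM DTT.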
RE007 growth inh: less growth of the S. pombe RE007 Vpr strain; S. pombe RE007 Vpr strain, BacTiter-Glo ATP luminescence, 24 h; control for the full effect not named in the record; Potency, µM (highest dose often 92.2 µM), for inactives: top-dose activity change, negative = less growth; 0.21% of 360,000 active; active = well fitted falling curve with a large enough effect; inconclusive = small, poorly fitted or top-dose-only effect; inactive = no such curve, though single readings can be large or run the other way;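 note: % is set by controls: 0 for no effect and ±100 for the full control effect; nearly all actives have a fitted effect of over 50% in size; the assay follows cell death caused by Vpr and the record does not say whether a fall means rescue or toxicity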
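Fission yeast RE007 carrying one integrated HIV-1 vpr copy, seeded at OD 0.01 in PMG+AL medium with 23 nL pinned compound. Grown 24 h at 30 degrees; viability read by BacTiter-Glo luminescence after 5 min.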
2A StopGo: lowers the luciferase signal of an FMDV 2A StopGo reporter; human cells with a luciferase reporter of 2A StopGo recoding; control for the full effect not named in the record; Potency, µM (titrated, usually from 57.9 µM), inactives show at the highest dose signal change, negative = less light; 1.2% of 410,000 active; AID 1159524; active = well fitted falling curve with a large enough effect; inconclusive = small, poorly fitted or top-dose-only effect; inactive = no such curve, though single readings can be large or run the other way; tested in HEK293T cells; note: % is set by controls: 0 for no effect and ±100 for the full control effect; nearly all actives have a fitted effect of over 45% in size; luciferase light after 4 h
MARV entry inh: inhibitors of Marburg virus binding or cell entry; AID 540276; Marburg virus pseudotyped entry inhibition, cell reporter; control for the full effect not named in the record; about a third of the inactives were read at about 46 µM; 1.8% of 300,000 active; Potency, µM (doses to about 37.8 µM), for the others: at the highest dose activity change, negative = inhibition, hits mostly inhibitors; active = well fitted inhibition curve with a large enough effect; inconclusive = small, poorly fitted or top-dose-only effect, or effect the other way; inactive = flat fitted curve, though single readings scatter; tested in HEK293 cells; about a fifth of its hits are not listed in these tables; note: % is set by controls: 0 for no effect and ±100 for the full control effect; luciferase read-out
NS1 function inh: blocks influenza NS1 protein function; 0.4% of 270,000 active; Potency, µM (top dose mostly 46.1 µM), without a hit: at the highest dose activity, positive = more growth; S. cerevisiae slowed by influenza A NS1, growth recovery by OD600; active means well fitted rising curve with a large enough effect; inconclusive means small, poorly fitted or top-dose-only effect; inactive means no such curve, though single readings can be large or run the other way; note: nearly all actives have a fitted effect of over 50% in size
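A cell-based growth assay was used: compounds that relieve NS1-induced slow growth of budding yeast raise OD600. Assay medium was yeast nitrogen base with ammonium sulphate and -URA supplement, pH 6.0, with 2% galactose.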
SARS PLP yeast: SARS-CoV PLP inhibition in yeast; Potency, µM (top dose mostly 32.9 µM), for inactives: at the highest dose activity, positive = growth rescue; S. cerevisiae expressing SARS-CoV PLpro, growth rescue; control for the full effect not named in the record; 0.19% of 330,000 active; AID 485353; active means well fitted rising curve with a large enough effect; inconclusive means small, poorly fitted or top-dose-only effect; inactive means no such curve, though single readings can be large or run the other way; note: 0% is about no effect; nearly all actives have a fitted effect of over 55% in size; growth read by luminescence after 48 h
Starred values were filed as active, the others as inactive; u = inconclusive; x = no result given; & = joins results of further samples; [ ] = another dose, or the depositor's remark. Unless noted, calls come from the whole dose curve; as a rule, active = well fitted curve in the direction sought with a large enough effect; inconclusive = small, poorly fitted or top-dose-only effect, or another doubt; inactive = no such curve, though single readings can be large; an effect the other way counts as inactive or inconclusive. Potency is the fitted concentration of half-maximal effect.

Structure | Cruzain inh noDet | LASV entry inh | Cruzain Triton | RE007 growth inh | 2A StopGo | MARV entry inh | NS1 function inh | SARS PLP yeast
COc1ccc(CNC(=O)COC(=O)C2=COCCO2)cc1 | -9% | 16% | 6.8% | 18% | -4% | 5% | 1% | 6%
CC(C)(c1cc(Br)c(O)c(Br)c1)c1cc(Br)c(O)c(Br)c1 | -5%&-9% | x | 11%&4.3% | u | -25% | x | x | 1%
O=C(COC(=O)/C=C/c1cccc(F)c1)Nc1ccc2[nH]c(=O)[nH]c2c1 | x | -19% | x | 4% | -6% | 6% | x | x
CCSc1nnc(-c2c[nH]c3ccccc23)o1 | x | -9%[46.1 µM] | x | -13% | 28% | u | -37% | -5%
CCOC(=O)c1c(C)oc2ncnc(Nc3ccc(F)cc3Cl)c12 | 2% | 0%[46.1 µM] | 3.8% | x | 6% | x | x | x
COC(=O)c1c(C)oc2ccc(N(C(=O)c3ccncc3)S(=O)(=O)c3ccccc3)cc12 | u | u | 0.8% | -4% | -13% | u | 3% | -4%
COc1ccc(CN2CCN(Cc3cccn3-c3ncccn3)CC2CCO)c(C)c1C (stereo not given) | x | x | x | -2% | u | x | 5% | 1%
CC(=O)c1cccc(-n2nnnc2SCC(=O)NNC(=O)C(C)C)c1 | x | x | x | 5% | 14% | x | 2% | 1%
COc1ccc(NC(=O)CCc2c(C)nc3cc(-c4cccc(F)c4)nn3c2C)cc1Cl | -6% | 5%[46.1 µM] | 2.1% | x | -30% | 5%[46.1 µM] | x | x
Cc1c(Cl)cccc1NC(=O)C(C)N(c1ccccc1)S(C)(=O)=O (stereo not given) | -1% | 16%[46.1 µM] | -3.6% | x | 39%[activator] | 19%[46.1 µM] | x | x
O=C(c1cc(Br)ccc1Cl)N1CCCC1 | x | -9%[46.1 µM] | x | 9% | -6% | 13%[46.1 µM] | 4% | 2%
Cc1cc(Oc2ccc(Br)cc2)nc(SCC(=O)c2ccccc2)n1 | -2% | -19% | -6.4% | -12% | u | u | 3% | 7%
Cc1cc(C(=O)NC2CCCc3c2cnn3-c2cc(F)cc(F)c2)nn1C (stereo not given) | x | 13% | x | -2% | -2% | -18% | -19% | 0%
Cc1cccc(C)c1NC(=O)C(=O)NCC(c1cccnc1)N1CCc2ccccc21 (stereo not given) | -1% | 2%[46.1 µM] | -0.9% | x | -30% | x | x | x
C=CCn1c(COc2ccc(CC)cc2)nnc1SCC(=O)NC1CCS(=O)(=O)C1 (stereo not given) | 6% | 11% | 0.0% | 3% | 9% | -3% | -4% | -5%
Cc1nc(Cc2nnc(SCc3nc(N)nc(Nc4ccccc4C)n3)o2)cs1 | 6% | 16% | 7.3% | 30% | -5% | -5%[46.1 µM] | -2% | 0%
CC(=O)c1c(C(C)=O)c(C)n(NC(=O)c2ccccc2O)c1C | -11% | -10%[14.3 µM] | 5.0% | -2% | 1% | 8% | 4% | 0%
CC1CC(C)CN(C(=O)Nc2ccc(Br)cc2)C1 (stereo not given) | x | -11% | x | 6% | 20% | 7% | -9% | -2%
COCCn1c(-c2ccc(F)cc2)nc2oc3cc(OC)ccc3c(=O)c2c1=O | x | x | x | -10% | -2% | x | -45% | -1%
O=C(NC(Cc1c[nH]c2ccccc12)C(=O)NCc1ccc(F)cc1)OCc1ccccc1 (stereo not given) | -9% | u | -9.6% | -6% | -7% | 4% | 5% | 18%

The list goes on:
Structure | Cruzain inh noDet | LASV entry inh | Cruzain Triton | RE007 growth inh | 2A StopGo | MARV entry inh | NS1 function inh | SARS PLP yeast
CCOC(=O)CN1CC23C=CC(O2)C(C(=O)NC2CCCCCC2)C3C1=O (stereo not given) | 3% | x | 2.2% | -3% | -7% | x | 8% | -8%
CCN(CC)CCC(=O)NC(C)(C)Cc1ccc(O)cc1 | -1% | -29% | -2.3% | 11% | 8% | -21% | -2% | 13%
C=CCNc1nc(NC(C)(C)CO)nc(OCC)n1 | 0% | 6% | 4.2% | 17% | 4% | 9% | 0% | 5%
Cc1nnc2n(-c3ccccc3)c(=O)c3c4c(sc3n12)CC(C)CC4 (stereo not given) | -4% | -39%[14.3 µM] | 3.0% | 6% | 4% | -19% | -3%[9.22 µM] | -2%
CCCCC(CC)CNC(=O)C(Cc1ccccc1)NS(=O)(=O)c1ccc2c(c1)CCC(=O)N2 (stereo not given) | x | x | x | -3% | -16% | 1% | x | -2%
COc1ccc(NC(=O)CN2CCN(c3ccc(F)cc3)CC2)cc1 | x | -14%[46.1 µM] | x | -11% | -18% | -8%[46.1 µM] | -4% | 1%
CCc1ccc(CN2CCN(C(=O)c3ccco3)CC2)cc1 | x | -30%[46.1 µM] | x | 7% | -20% | 14%[46.1 µM] | 1% | -1%
Cc1ccc(C(c2nnnn2CCC(C)C)N2CCN(C)CC2)cc1 (stereo not given) | -14% | -3% | 5.7% | 9% | 11% | -6%&-18% | -5% | -2%
CCOC(=O)c1cccc(NC(=O)c2ccc3c(Cl)c4c(nc3c2)CCC4)c1 | -4% | 12%[46.1 µM] | 0.7% | x | -5% | u | x | x
Cc1cc(C)n2nc(SCC(=O)N(CC(C)C)c3c(N)n(CC(C)C)c(=O)[nH]c3=O)nc2n1 | x | 1% | x | -8% | -11% | x | x | 3%
Cc1nc2c(C(=O)NCCC3=CCCCC3)c[nH]n2c(=O)c1Cl | u | 29%[14.3 µM] | -16% | 6% | 4% | u | -4% | 4%
O=C(Nc1ccc(S(=O)(=O)NCc2ccccc2)cc1)c1ccccc1[N+](=O)[O-] | 2% | -17% | -7.4% | -9% | 19% | u | -8% | -6%
O=C(c1ccco1)N(Cc1cccc([N+](=O)[O-])c1)c1ccc(Br)cc1 | x | u | x | 13% | u | u | 4% | 0%
Cc1ccccc1N1C(=O)c2ccccc2NC1c1ccncc1 (stereo not given) | 3% | -12% | -3.0% | 6% | -21% | -5% | 5% | 18%
CCCC1C(C#N)=C(N)Oc2cc(C)n(C)c(=O)c21 (stereo not given) | -10% | 0% | -0.5% | 5% | 20% | 10% | u | -8%
CC(C)c1ccc2c(c1)[C@H]1OCC[C@H]1[C@@H](c1cccs1)N2 | -8% | u | -3.2% | -5% | -18% | u | -44% | -56%
COC(=O)c1cccc(NC(=O)CSc2nc(C)cc(=O)[nH]2)c1 | -16% | 21% | -9.5% | 23% | -3% | -7% | 10% | 3%
COc1cc(CCC(=O)OCC(=O)NC(=O)c2ccc(Cl)cc2)cc(OC)c1OC | x | 13%[46.1 µM] | x | 5% | -12% | 3%[46.1 µM] | x | -7%
Cc1ccc(S(=O)(=O)Nc2ccc(O)c(Sc3ncn[nH]3)c2)cc1 | x | 18%[46.1 µM] | x | -1% | -7% | 11% | 1% | 0%
Cc1ccc(NS(=O)(=O)c2cccs2)nc1 | x | u | x | -3% | 22% | 4%[46.1 µM] | 5% | -3%

The list goes on:
Structure | Cruzain inh noDet | LASV entry inh | Cruzain Triton | RE007 growth inh | 2A StopGo | MARV entry inh | NS1 function inh | SARS PLP yeast
CCOC(=O)c1c(C)[nH]c(C)c1S(=O)(=O)N1CCC(C(=O)Nc2cc(C)ccn2)CC1 | -4% | -11%[46.1 µM] | 1.0% | x | -4% | x | x | x
O=Nc1ccc(O)c2ncccc12 | x | x | x | -10% | u | x | 4% | 0%
CN(C(=O)CCN1C(=O)C2C3C=CC(C3)C2C1=O)c1ccccc1 (stereo not given) | x | 3% | x | 6% | -7% | 6% | -2% | 0%
COc1cccc(/C=N/NC(=O)CSc2nnc(C)n2-c2ccccc2)c1OC | 8% | 4% | 1.7% | 8% | u | 25%[46.1 µM] | -6% | 1%
CCOC(=O)c1ccc(Oc2nc(NC)nc(OC)n2)cc1 | -2% | -4% | -1.3% | 20% | 21% | -28%[46.1 µM] | -20% | -7%
Nc1nonc1C(=O)NCCNc1ncccc1[N+](=O)[O-] | x | u | x | -3% | 0% | 22%[46.1 µM] | x | -2%
O=C(c1cc2ccccc2o1)N1CCN(S(=O)(=O)/C=C/c2ccccc2)CC1 | x | -25% | x | -8% | u | u | 17% | -6%
CCn1c(CNC(=O)c2ccco2)nnc1SCC(=O)Nc1ccc(Br)cc1F | -3% | -7% | -1.8% | -1% | 9% | 17% | -2% | 7%
CCOC(=O)N1CCN(C(=O)c2ccc3c(=O)n(CC4CCCO4)c(=S)[nH]c3c2)CC1 (stereo not given) | 1% | 6% | 0.8% | 7% | -22% | 10% | 0% | -1%
Cc1ccc(NC(=O)C2CCN(S(=O)(=O)c3c(C)n[nH]c3C)CC2)c(C)c1 | x | x | x | -7% | -1% | x | 2% | 3%
CC(C)N(C1=N/C(=C\c2ccco2)C(=O)N1c1ccccc1)C(C)C | -14% | 6% | -2.2% | -8% | -7% | u | 9% | -1%
O=[N+]([O-])c1ccc(S(=O)(=O)N/N=C/c2ccc3c(c2)OCO3)cc1 | x | 6%[46.1 µM] | x | 10% | 42%[activator] | -20%[46.1 µM] | -11% | -3%
O=C(Cn1nc(Cc2cccnc2)c2ccccc2c1=O)N1CCN(c2ccc(F)cc2)CC1 | -9% | u | -1.1% | x | -30% | -22%[46.1 µM] | x | x
Cc1ccc(-c2noc(CCC(=O)NCc3ccc4c(c3)OCO4)n2)cc1 | 3% | 14% | -0.7% | -13% | 11% | 23% | 0% | 6%
Cc1cccn2c(=O)c3cc(C(=O)NCC4CCCO4)c(=N)n(CCN4CCOCC4)c3nc12 (stereo not given) | -1% | 12% | -16% | -15% | -17% | -8%&4% | 4% | 1%[6.58 µM]
CC(C)=CCN1CCN(Cc2cc(F)ccc2-n2nc(C)cc2C)CC1CCO (stereo not given) | x | x | x | -16% | -3% | x | 4% | 0%
O=C(CN1CCCCC1)Nc1cccc2c1OCO2 | -1% | 24% | 3.3% | -6% | -1% | 16% | 2% | -2%
COc1ccc(C(=O)c2ccc(CC#N)s2)cc1 | 9% | 13% | -5.1% | -4% | 26% | u | 22% | 5%
Cc1ccc(S(=O)(=O)Nc2cc3c(cc2N2CCOCC2)n(C)c(=O)n3C)c(C)c1 | u | -16%[46.1 µM] | -1.4% | x | -3% | 20%[46.1 µM] | x | x
